Bioassay records as filed in PubChem BioAssay.
VDR inh: inhibitors of human vitamin D receptor. Potency, µM, without a hit: max response, negative = inhibition, actives largely listed as inhibitors. P11473. VDR-SRC2-3 peptide fluorescence polarization, 2 h. actives 0.93% (n = 400,000); active = well fitted inhibition curve with a large enough effect; inconclusive = small, poorly fitted or top-dose-only effect, or another doubt; inactive = no such curve, though single readings can be large or run the other way; also: series mostly up to about 120 µM
Target sequence (P11473 whole entry, looked up): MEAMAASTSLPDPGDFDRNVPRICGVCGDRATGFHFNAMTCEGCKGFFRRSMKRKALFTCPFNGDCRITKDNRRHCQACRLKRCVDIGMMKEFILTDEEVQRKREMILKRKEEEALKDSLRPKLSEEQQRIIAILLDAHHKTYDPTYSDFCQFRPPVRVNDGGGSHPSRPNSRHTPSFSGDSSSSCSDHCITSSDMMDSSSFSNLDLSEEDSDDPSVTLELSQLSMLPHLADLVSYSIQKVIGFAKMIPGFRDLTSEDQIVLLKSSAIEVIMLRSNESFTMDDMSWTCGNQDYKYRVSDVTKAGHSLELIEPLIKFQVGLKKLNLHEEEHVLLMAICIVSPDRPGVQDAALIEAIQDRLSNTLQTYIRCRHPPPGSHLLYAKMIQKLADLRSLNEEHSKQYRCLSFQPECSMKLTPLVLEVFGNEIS
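The screen uses fluorescence polarization to detect compounds that interfere with recruitment of the SRC2-3 coactivator peptide to VDR; plates are read after 2 h at room temperature.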
Numbers without * were called inactive; ? = inconclusive; & = joins results of further samples. % is scaled to controls: 0 for no effect and ±100 for the full control effect; potency is read from the fitted curve at half-maximal effect.

Compound | VDR inh
Cn1cccc1Cc1nnc(SCC(=O)N2CCCc3ccccc32)n1-c1ccc(F)cc1 | -11%
CCn1cc(C(=O)NCCc2ccc(C)cc2)c(=O)c2cc(S(=O)(=O)N(C)C)ccc21 | -13%&-3%
O=C(Oc1ccc(C(=S)N2CCCCC2)cc1)c1ccccc1F | -17%
O=C(NCCCNC(=O)c1ccco1)c1ccc(F)cc1 | 16%
COC(=O)c1c(C)cc(O)c(C)c1O | -4%
COc1cc(C(c2c(C)[nH][nH]c2=O)c2c(C)[nH][nH]c2=O)ccc1OC(=O)c1cccc([N+](=O)[O-])c1 | ?
CCc1ccc(S(=O)(=O)N2CCN(C(=O)C3CCN(C(C)=O)CC3)CC2)cc1 | -7%
O=C(OCCOc1cccc(Cl)c1)c1ccc2ncsc2c1 | -10%
Cn1c(SCC(=O)c2ccccc2)nnc1-c1cccs1 | -4%
CCCCOc1ccc(N=Nc2ccc(N)nc2N)cn1 | -13%
CC(NC(=O)Cn1cccc1C(=O)c1ccccc1)c1ccc2c(c1)OCCO2 (stereo not given) | 13%
COC(=O)CCC(=O)NC(=S)Nc1cc(Cl)ccc1Cl | -2%
Cc1nnsc1-c1onc(C)c1C(=O)O/N=C/c1ccc(Cl)cc1 | -16%
O=C(Cc1ccccc1)Nc1ccc(NC(=O)c2cccs2)cc1 | -10%
CC(C)CN(CC(C)C)S(=O)(=O)N1CCC(C(=O)NCc2cccs2)CC1 | 13%
CCN(CC)CCNC(=O)c1ccc(NC(=O)COc2ccccc2F)cc1 | 12%
O=C(Nc1ccc(-c2noc(CCc3ccccc3)n2)cc1)c1ccco1 | ?
Cc1ccc(N2CCN(C(=O)c3c4c(nc5ccccc35)C(=O)N(C3CCCCC3)C4)CC2)c(C)c1 | 4%
CC(C)CC(=O)NC(=S)N(Cc1ccccc1)Cc1ccccc1 | ?
COC(=O)c1ccc(Cl)c(NC(=O)NC2CCCCC2)c1 | -1%
c1ccc(Nc2nc3ccccc3n3nnnc23)cc1 | -13%
O=C(CSc1ncn(-c2ccccc2)n1)Nc1nncs1 | -5%
COC(=O)c1ccc(/C=C2\SC(=S)N(CCCC(=O)N3CCOCC3)C2=O)cc1 | 10%
N#CCSc1ccc2nc(-c3ccccc3)cn2n1 | -9%
CCOc1cc(Br)c(CN2C(=O)NC3(CCCCCC3)C2=O)cc1OCC | -3%

3 compounds picked at random from the list so far:
Compound | VDR inh
O=C(CSc1ncn(-c2ccccc2)n1)Nc1nncs1 | -5%
COC(=O)c1ccc(Cl)c(NC(=O)NC2CCCCC2)c1 | -1%
Cn1c(SCC(=O)c2ccccc2)nnc1-c1cccs1 | -4%

Next section.
Compound | VDR inh
CCN(CC(=O)Nc1ccc(NC(C)=O)cc1)C(=O)c1cc2c(s1)CCCCC2 | -9%
CCCN(CCC)C(=O)C1CC(=O)OC12CCCCC2 (stereo not given) | 3%
OC(CN1CCCC(C(F)(F)F)C1)c1ccccc1 (stereo not given) | ?
CSCCC(NC(=O)c1cccc(C)c1)C(=O)NCc1cccs1 (stereo not given) | -3%
c1cncc(-c2nc(NCCN3CCOCC3)c3ccccc3n2)c1 | -13%
OCC[C@H]1C[C@@H](O)[C@H](O)[C@@]2(OCCc3ccccc32)O1 | ?
CCOC(=O)c1c(NC(=O)COC(=O)/C=C/c2ccco2)sc2c1CC(C)(C)NC2(C)C | -5%
Cc1onc(-c2ccccc2Cl)c1C(=O)Nc1ccc(-n2nncc2C(C)(C)C)cc1 | -2%
COc1ccc2c(c1)O[C@@H](c1ccc3c(c1)OCO3)[C@H](OC(=O)N[C@H](C)C1CCCCC1)C2=O | -5%
CCOc1cc(/C=N\Nc2nc(-c3ccc(C)cc3)c(NC(C)=O)s2)ccc1O | -7%
CCCCC(=O)N(c1ccc2oc(C)c(C(C)=O)c2c1)S(=O)(=O)c1ccc(F)cc1C | 11%
CCOn1c(SCC)nc2ccccc2c1=O | 9%
CN(CCO)c1ccc([N+](=O)[O-])cc1C(=O)O | -13%
COc1ccc(NS(=O)(=O)c2cc(C)ccc2NC(=O)c2cc(C)oc2C)cc1 | 14%
CCC(C)(C(=O)NC1CCCCC1)N(C(=O)CNC(=O)c1ccccc1)c1c(C)n(C)n(-c2ccccc2)c1=O (stereo not given) | 0%
O=C(O)CCC(=O)N1CCc2cc(S(=O)(=O)N3CCN(c4ccc(F)cc4)CC3)ccc21 | -12%
CCOC(=O)c1c(S(=O)(=O)NCC(=O)N2CCN(c3cccc(OC)c3)CC2)c(C)n(C)c1C | 7%
COc1ccc(C)cc1NC(=O)CSc1nnc(-c2ccco2)n1N | 12%
C/C=C(\C)c1nnc(NC(=O)C(C)C)s1 | -11%
COC(=O)C(C)Sc1nc2ccsc2c(=O)n1Cc1ccccc1 (stereo not given) | 2%
O=C(CSc1ncccn1)NC(=O)Cc1ccccc1 | -5%
Cc1ccc(C)c(CSc2cn(CC(=O)N3CCCCCC3)c3ccccc23)c1 | 8%
Cc1cc(C)cc(NC(=O)CSc2nc3sc4c(c3c(=O)[nH]2)CCCC4)c1 | 6%
Cc1ccc(N(CC(=O)Nc2ccc(F)cc2)S(=O)(=O)N2CCCC2)cc1 | -8%
CC1CCc2sc(C(=O)NNS(=O)(=O)c3ccc(F)c(F)c3F)cc2C1 (stereo not given) | -1%
O=S(=O)(NCc1ccccc1)c1ccc(S(=O)(=O)N2CCCCC2)cc1 | -8%
CCOC(=O)C1CCN(C(=O)c2ccccc2N(C)S(C)(=O)=O)CC1 | 2%
COc1ccc(N2CCN(c3ccc([N+](=O)[O-])cc3Cl)CC2)cc1 | -18%
CCN(Cc1ccc(N(C)C)cc1)C(C)C(=O)Nc1ccc(S(=O)(=O)N2CCCC2)cc1 (stereo not given) | -25%
O=C(COc1ccc2c3c(c(=O)oc2c1)CCC3)c1ccc2c(c1)OCO2 | 3%
CCc1ccc(-c2nc(CS(=O)CC(=O)NCc3ccc4c(c3)OCO4)c(C)o2)cc1 (stereo not given) | 5%
Cc1ccc(S(=O)(=O)N(CC(=O)NCc2ccncc2)Cc2ccccc2F)cc1 | 0%
CC(=O)c1c(C)[nH]c(C(=O)COC(=O)c2cccs2)c1C | 7%
COc1cc(C2c3c(-c4cc(Cl)c(C)cc4O)n[nH]c3C(=O)N2Cc2cccnc2)ccc1O (stereo not given) | 5%
CC(=O)Nc1cccc(NS(=O)(=O)c2c(C)noc2C)c1 | -16%
C#CCOC(=O)c1ccccc1C(=O)OCC#C | 3%
O=C(CCOc1ccccc1)Nc1cccc([N+](=O)[O-])c1 | -2%
CCN(CC)S(=O)(=O)c1cccc(C(=O)N/N=C/c2cc(OC)c(O)c(OC)c2)c1 | 2%
O=C(c1ccc2ccccc2n1)N1CCN(c2ccccn2)CC1 | -7%
COc1ccc(OCC(=O)NCCCNC(=O)COc2ccc(OC)cc2)cc1 | -2%
Cn1c(=O)[nH]c(=O)c2c1nc(Br)n2CCC(=O)c1ccccc1 | -2%
CC1CC2=C(C(=O)O1)C(c1ccc(Cl)cc1)Nc1ccccc1N2 (stereo not given) | -2%
O=C(Nc1ncccn1)c1cc(-c2ccc(F)cc2)nc2ccccc12 | -3%
CC(Sc1nncn1C)C(=O)Nc1ccc(Cl)cn1 (stereo not given) | -21%
C=CCn1c(C2CCCCC2)n[nH]c1=S | -12%
Cc1ccc(OCc2n[nH]c(=S)n2-c2ccc(Br)cc2)cc1 | -14%
CCOC(=O)C1(CC2CC2)CCN(Cc2ccc(OC)cc2F)CC1 | -7%
O=C(Cc1ccc(-n2c(=O)c3ccccc3n(CC(=O)Nc3ccc(F)cc3F)c2=O)cc1)NCc1ccco1 | -13%
O=C(NNC(=O)C1C2C=CC(C2)C1C(=O)O)c1ccccc1 (stereo not given) | 11%
Cc1nn(-c2ccccc2)c(C)c1-c1ccccc1O | 0%

Carrying on.
Compound | VDR inh
Cc1ccc(NC(=O)CC2CS(=O)(=O)CC2CC(=O)Nc2ccc(C)c(C)c2)cc1C (stereo not given) | -9%
Cc1ccc(S(=O)(=O)N/N=C/c2ccccc2O)cc1[N+](=O)[O-] | -4%
O=C(CSc1ncnc2c1oc1ccccc12)Nc1cccc(C(F)(F)F)c1 | -7%
CN(C)/C=N/c1nc2nccc(-c3ccccn3)n2n1 | -7%
COc1ccc(CCNC(=O)CN2CCOc3ccccc32)cc1OC | -17%
CC1(C)C2C/C(=N\O)C(C)(/[N+]([O-])=C/c3cccc([N+](=O)[O-])c3)CC21 (stereo not given) | -16%
CC(C)c1ccc(/C=N/NC(=O)CN(c2cccc(Cl)c2Cl)S(C)(=O)=O)cc1 | -4%
O=C1S/C(=C\c2ccc(N3CCOCC3)o2)C(=O)N1Cc1c(F)cccc1Cl | ?
CN(CC(=O)Nc1ccc(F)c(F)c1F)C1CCCCC1 | -13%
CCN(Cc1cnn(C)c1)C(=O)c1cc(COc2ccc(F)cc2F)on1 | -22%
Oc1ccc(Cc2ncc(C(F)(F)F)cc2Cl)cc1 | 9%
Cc1ccn(C(C)CC(=O)N2CCc3ccccc32)n1 (stereo not given) | -6%
Cn1ccnc1C(=O)c1ccc(N)cc1 | -2%
CNC(=O)/C=C1\NC(C)(C)Cc2c1ccc1ccccc21 | 79µM*
CC(C)Cn1c(-c2ccco2)n[nH]c1=S | -2%
O=C(O)CCCN1C(=O)c2ccccc2Sc2ncccc21 | 24%
CCCCN(C)C(=O)c1coc(=O)c2ccccc12 | -3%
CC(C)c1nnc(SCC(=O)Nc2ccc3c(c2)OCCO3)n1C | 4%
COc1cccc(OC)c1OCCCN1CCC(Cc2ccccc2)CC1 | 5%
Cc1ccccc1C(=O)NCC(c1ccc(N(C)C)cc1)N1CCCC1 (stereo not given) | 10%
COc1ccc2c(c1)c1c(c(=O)n(-c3ccc(F)c(Cl)c3)c(=O)n1CC(N)=O)n2C | 10%
Cc1cccc(N2CCN(C3CCCCC3NS(=O)(=O)c3ccccc3)CC2C)c1 (stereo not given) | -18%
CCCCOc1ccc(C(=O)NCC(c2ccc(Cl)cc2)N2CCOCC2)cc1 (stereo not given) | 18%
CCC(C)c1ccc(S(=O)(=O)N2CCN(c3ccccn3)CC2)cc1 (stereo not given) | 12%
CCOc1cc(N2CCOCC2)c(OCC)cc1NC(=O)Cn1nc(C)c([N+](=O)[O-])c1C | -3%

Some of the entries above, set out differently:
CCn1cc(C(=O)NCCc2ccc(C)cc2)c(=O)c2cc(S(=O)(=O)N(C)C)ccc21
- VDR inh: -13%&-3%

O=C(Oc1ccc(C(=S)N2CCCCC2)cc1)c1ccccc1F
- VDR inh: -17%

Next records.
Compound | VDR inh
C=CCn1c(SCCCCCC)nc(O)cc1=O | -7%
COc1ccc(-c2nsc(SCC(=O)Nc3ccc4c(c3)OCO4)n2)cc1 | 7%
Cc1ccccc1NC(=O)Nc1cccs1 | -9%&-3%
Cc1cc(=O)[nH]c(SCC(=O)NC2CCCCCC2)n1 | -17%
Cc1csc(Sc2ccc([N+](=O)[O-])cc2C(=O)OCC(=O)NC2CCCC(C)C2C)n1 (stereo not given) | 1%
Cc1cc(C)cc(C(=O)n2nc(C)c(S(=O)(=O)N3CCCCCC3)c2C)c1 | 2%
CS(=O)(=O)c1ccc(C(=O)OCC(=O)NC(=O)NC2CCCCC2)cc1[N+](=O)[O-] | ?
CCN(CC(=O)Nc1c(F)cccc1F)C(=O)CCSc1ccc(F)cc1 | -4%
CC1(C)CC(=O)C=C(NCC(=O)O)C1 | -6%
CCCCCN(C(=O)CCC(=O)OCC(=O)c1cccc(OC)c1)c1c(N)n(CCCC)c(=O)[nH]c1=O | -10%
CC1=C(C)[N+](=O)C2(O)CCCCC2(C)N1[O-] (stereo not given) | 17%
COc1ccc(CCC(=O)Nc2cc(S(=O)(=O)N3CCCCC3)ccc2N(C)C)cc1 | 1%
Cc1ccccc1OCCC(=O)Nc1cccc(S(=O)(=O)Nc2ccccc2Cl)c1 | -21%
O=C(Oc1ccc(/C=N/NC(=O)c2ccco2)cc1)c1ccccc1 | -5%
COC(=O)Cn1cc(/C=C/[N+](=O)[O-])c2ccccc21 | ?
CN(c1ccccc1)S(=O)(=O)c1ccc(C(=O)NNC(=O)c2ccccc2)cc1 | 0%
CC(=O)C1=C(O)C(=O)N(c2ccc(Br)cc2)C1c1cccc(F)c1 (stereo not given) | -18%
Cc1[nH]n(C(N)=S)c(=O)c1N=Nc1ccc2ccccc2c1 | ?
O=C(NNC(=O)C1CCCCC1)c1ccncc1 | -2%
NC(=O)CCc1c[nH]c2ccccc12 | -8%
CC(=O)N1CCN(C(=O)c2cc(C)oc2C)CC1 | -2%
CC(C)C[C@H](NC(=O)[C@H](Cc1ccccc1)n1c(=O)[nH]c2ccccc2c1=O)C(=O)N1CCC[C@H]1C(=O)O | -7%
Cc1ncc(/C=C2\C(=O)Nc3ccccc32)[nH]1 | -11%
Cc1ccccc1Cn1nnc(-c2ccc(F)cc2)n1 | 0%
Cc1ccc(-c2cc(=O)[nH]c3ccccc23)cc1 | -4%
Nc1[nH]ncc1N=Nc1ccc(Cl)cc1 | 12%
COc1ccccc1C1CCN(Cc2ccc(Cl)cc2Cl)CC1 | 11%
COc1ccc(NC(=O)CSc2nc3ccccc3c(=O)n2CCNC(C)=O)cc1 | -15%
O=C(CCN1CCOCC1)Nc1ccccc1 | 2%
CC#CCN1C=C(C(=O)OCC)C(C)N(Cc2ccc(Br)cc2)S1(=O)=O (stereo not given) | -27%

The list is partial. The share of hits here may be higher or lower than overall.
